KCNQ2 enhance = enhances the rat KCNQ2 potassium channel. O88943. CHO-K1 KCNQ2, FluxOR thallium flux fluorescence; stronger effect = higher value. B-score at 10 µM. 0.54% of 310,000 active;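 active = fluorescence ratio B-score at least 3 SD of library B-scores, with initial fluorescence B-score within 3 SD, cut at about 5.3 in these data; same plate scores as AID 2156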;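 note: B-score of peak minus minimum over baseline fluorescence ratio after K+ and Tl+ stimulus; positive B-score means potentiation of KCNQ2 with more thallium influx and brighter signal; only the inactives scoring about 0 or higher are listed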
Target sequence (O88943 whole entry, looked up): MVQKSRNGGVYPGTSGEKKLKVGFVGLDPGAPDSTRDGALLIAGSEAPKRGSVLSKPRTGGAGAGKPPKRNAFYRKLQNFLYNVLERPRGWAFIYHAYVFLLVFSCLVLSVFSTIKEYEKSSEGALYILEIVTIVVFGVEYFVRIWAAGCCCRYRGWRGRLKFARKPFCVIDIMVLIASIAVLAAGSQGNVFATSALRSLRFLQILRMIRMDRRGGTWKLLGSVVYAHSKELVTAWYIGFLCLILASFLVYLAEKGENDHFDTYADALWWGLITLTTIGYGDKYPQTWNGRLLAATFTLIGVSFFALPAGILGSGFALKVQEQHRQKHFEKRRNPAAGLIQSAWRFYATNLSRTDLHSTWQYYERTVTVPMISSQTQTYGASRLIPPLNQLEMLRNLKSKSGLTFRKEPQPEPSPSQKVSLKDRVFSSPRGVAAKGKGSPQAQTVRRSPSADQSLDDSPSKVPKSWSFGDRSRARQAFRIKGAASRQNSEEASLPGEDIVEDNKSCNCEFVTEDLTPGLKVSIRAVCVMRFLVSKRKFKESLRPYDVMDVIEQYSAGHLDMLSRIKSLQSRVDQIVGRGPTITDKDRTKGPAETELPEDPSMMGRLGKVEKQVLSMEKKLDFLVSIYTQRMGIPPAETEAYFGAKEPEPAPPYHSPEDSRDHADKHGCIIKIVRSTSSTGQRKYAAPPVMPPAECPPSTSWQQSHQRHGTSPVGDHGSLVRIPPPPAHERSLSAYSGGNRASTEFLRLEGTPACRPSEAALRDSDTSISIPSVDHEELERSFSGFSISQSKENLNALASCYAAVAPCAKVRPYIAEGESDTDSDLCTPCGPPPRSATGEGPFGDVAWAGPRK
KCNQ2 enhance baseline = recorded beside KCNQ2 enhance, whose call it bears; B-score; compound at 10 µM; measured here: initial fluorescence intensity artifact check;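 brightness before thallium and not channel activity; 0 = typical well and far values either way flag optical interference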
The depositor's hits bear a star; x = not tested or not shown.

Start of the data: the first 5 entries, to show the layout:
Compound	KCNQ2 enhance	KCNQ2 enhance baseline
COc1cccc(NC(=O)COC(=O)c2c(F)cccc2F)c1	1.6	-2.1
COC(=O)C(Cc1ccccc1)NC(=O)CNS(=O)(=O)c1ccc(Br)cc1 (stereo not given)	0.82	0.57
COc1ccccc1Oc1ccc(NC(=O)Cc2ccccc2)cc1	0.84	-1.4
CCn1c(=O)cc(SCC(=O)NCCC2=CCCCC2)c2ccccc21	1.9	-1.4
O=c1c2ccccc2nc2n1CCCN2	1.2	0.21

The whole of this part, repeating the preview:
Compound	KCNQ2 enhance	KCNQ2 enhance baseline
COc1cccc(NC(=O)COC(=O)c2c(F)cccc2F)c1	1.6	-2.1
COC(=O)C(Cc1ccccc1)NC(=O)CNS(=O)(=O)c1ccc(Br)cc1 (stereo not given)	0.82	0.57
COc1ccccc1Oc1ccc(NC(=O)Cc2ccccc2)cc1	0.84	-1.4
CCn1c(=O)cc(SCC(=O)NCCC2=CCCCC2)c2ccccc21	1.9	-1.4
O=c1c2ccccc2nc2n1CCCN2	1.2	0.21
Nc1ccccc1Sc1cc(Cl)nnc1Cl	0.58	-2.2
CC(C)C(C(=O)NC1=NCCS1)c1ccc(Cl)cc1 (stereo not given)	1.6	0.03
C=CCOc1c(Br)cc(CNn2nnnc2N)cc1OC	0.37	-1.1
COc1cc2c(cc1OC)CN(C(=O)c1cc(=O)c3ccccc3o1)CC2	0.91	-3.2
Cc1cccc(COc2coc(CN3CCN(C(=O)c4ccco4)CC3)cc2=O)c1	0.54	0.33

The list goes on:
Compound	KCNQ2 enhance	KCNQ2 enhance baseline
O=C(Cn1nnc2ccccc2c1=O)Nc1ccc(S(=O)(=O)N2CCOCC2)cc1	0.51	0.01
COc1ccc(C2c3ccc(O)cc3Oc3ncn4nc(-c5ccncc5)nc4c32)cc1OC (stereo not given)	2.2	-0.2
O=C(O)c1cccc(S(=O)(=O)N2CCSCC2)c1	0.56	1.7
CCn1c(SCc2nc3cc(OC)c(OC)cc3c(=O)[nH]2)nc2ccccc21	0.16	2.1
Cc1nc2ccc(S(=O)(=O)NCC(=O)N3CCN(c4ccccc4)CC3)cc2s1	0.77	0.05
Cc1cccc2cc(CNC3CCCC3)c(Cl)nc12	1.4	-1.5
O=C(CSc1nnc(CNC(=O)c2ccccc2)o1)NCc1ccco1	1.7	0.83
COc1ccc2c(c1)C1(Nc3ccccc3C(=O)N1c1ccccc1)C(=O)N2 (stereo not given)	0.35	0.39
O=C(CN1CCOCC1)Nc1nc(-c2ccc3c(c2)CCN3S(=O)(=O)c2ccccc2)cs1	0.37	-0.4
COc1cc(/C=N/NC(=O)c2cccc(S(=O)(=O)N3CCOCC3)c2)cc(OC)c1O	0.96	0.55

Continuation.
Compound	KCNQ2 enhance	KCNQ2 enhance baseline
Cc1c(Cl)cccc1NC(=O)c1ncn[nH]1	0.55	2
C/C=C/C=C/C(=O)[C@@H]1[C@@H]([C@]2(C)OC(=O)C(C)=C2O)[C@H]2/C(=C(O)/C=C/C=C/C)C(=O)[C@]1(C)C(=O)C2(C)O (stereo not given in full)	0.42	1.5
CC(C)n1nnnc1SCC(=O)N1CCOCC1	2.9	0.66
CC(C)(C)C1CCc2c(C(=O)NNC(=O)/C=C/C(=O)O)csc2C1 (stereo not given)	0.15	2.8
Cn1cnc2c1c(=O)[nH]c(=O)n2Cc1ccccc1	0.02	-0.8
COc1ccccc1-n1c(SC)nc(O)cc1=O	1.7	-0.58
O=C(O)CCCC(=O)Nc1ccn(-c2ccccc2)n1	1.1	1.9
CCOC(=O)N1CCN(C(=O)c2cc3c(=O)n4cccc(C)c4nc3s2)CC1	1.4	0.14
CC(C)(C)c1ccc(-n2ncc3c2CCCC3NC(=O)C2=NNC(=O)CC2)cc1 (stereo not given)	0.03	-0.33
CC1CCN(C(=O)C2CCC(CNc3c(N4CCCCC4)c(=O)c3=O)CC2)CC1 (stereo not given)	0.78	-1.7

(next part)
Compound	KCNQ2 enhance	KCNQ2 enhance baseline
Cc1ccc(S(=O)(=O)N(CC(O)CN2C(=O)NC(C)(C)C2=O)c2cccc(C)c2)cc1 (stereo not given)	0.02	0.03
CCOC(=O)c1c(C)nc2c(C)cccn12	0.81	0.24
COc1ccc(NC(=O)COC(=O)/C=C/c2cnc3ccccc3n2)cc1	0.55	0.04
CCCOc1ccc(C(=O)NC(C)C(=O)O)cc1 (stereo not given)	1.1	-0.74
CCS(=O)(=O)c1ccc(O)c(NC(=O)Nc2ccccc2OC)c1	1.3	-0.25
Cc1cc(-c2ccccc2)nc(N2CCC(C(=O)NC(C)C)CC2)n1	1.5	0.77
CCNC(=O)c1c(NC(C)=O)sc2c1CCCC2	1	-0.96
OC(CNCc1ccc(Cl)cc1)C(F)(F)F (stereo not given)	1.7	1.9
CCc1cccc(C)c1NC(=O)C1=C(C(=O)O)CCCC1	0.01	-1
NC(=O)Cn1cc(/C=N\NS(=O)(=O)c2ccc(Cl)cc2)c2ccccc21	0.07	-1.4

(cont.)
Compound	KCNQ2 enhance	KCNQ2 enhance baseline
O=C(CSc1ncnc2ccccc12)Nc1ccc(N2CCOCC2)cc1	1.1	2.3
COc1ccc(C(=O)NCCS(=O)(=O)NCc2cccnc2)cc1	1.1	-0.15
C(=N\N1CCN(Cc2cccc3ccccc23)CC1)/c1cccnc1	0.14	0.62
O=C(Nc1ccc(C(=O)O)cc1)/C(=C\c1ccc2c(c1)OCO2)NC(=O)c1ccccc1	0.06	0.02
COc1ccccc1CC(=O)Nc1ccc(S(=O)(=O)N2CCOCC2)cc1	0.97	-1.2
Cc1ccc2nc3c(cc2c1)c(NC(=O)c1cccnc1)nn3C	0.19	-0.45
O=C(O)c1ccc(Cl)cc1Nc1nc2cc(Cl)ccc2o1	1.4	0.05
Cc1c(/C=C/C(=O)c2ccc(Cl)s2)cnn1C	0.01	0.38
CCOc1ccc(C(=O)Nc2cc(-c3nc4ccccc4[nH]3)ccc2Cl)cc1[N+](=O)[O-]	0.85	-1.2
CCOC(=O)N1CCN(C(=O)CSc2nnc(-c3cccs3)o2)CC1	0.3	1.6

The list continues.
Each structure is followed by: KCNQ2 enhance, KCNQ2 enhance baseline
- CCOC(=O)C1(CCOc2ccccc2)CCN(Cc2ccc(O)c(OC)c2)CC1
  1.5, -1.2
- O=C(COC(=O)C1COc2ccccc2O1)NC(=O)NC1CCCCC1 (stereo not given)
  0.91, -0.01
- COC(=O)CSc1ccc(S(=O)(=O)N2CCOCC2)cc1[N+](=O)[O-]
  0.08, -1
- CN(c1ccc(O)cc1)c1nc(O)c(C2=c3ccccc3=NC2=O)s1
  3.2, -2.5
- CC1CCCCC1NC(=O)CN1C(=O)CSc2cc(S(=O)(=O)N3CCCCCC3)ccc21 (stereo not given)
  0.26, 1.7
- Cc1ccccc1C(=O)c1c[nH]c(C(N)=O)c1
  1.2, 0
- CC(CCOS(N)(=O)=O)c1ccccc1 (stereo not given)
  0.36, -0.35
- O=C(NNC(=O)C1CC1)c1cc2cc3ccccc3nc2s1
  0.85, 0.18
- C/C(CC(=O)Nc1ccc(Cl)cc1Cl)=N\NC(=O)C(=O)N1CCCC1
  1.1, 0.08
- COC(=O)c1sc(N2C(=O)C(O)=C(C(=O)c3ccc(C)o3)C2c2ccc([N+](=O)[O-])cc2)nc1C (stereo not given)
  0.24, 0.81
- Fc1ccc2c(c1)C(c1ccncc1)=NNC(c1ccc(Cl)cc1)=N2
  1.7, -0.88
- COCCNC(=O)C1CC2Cn3c(nc4ccccc43)C2N1C (stereo not given)
  0.13, 1.5
- Cc1sc2ncnc(OCC(=O)N3CCN(S(=O)(=O)c4ccc(Cl)cc4)CC3)c2c1C
  0.35, 1.1
- Cc1nc(=O)cc(-c2ccccc2)n1-c1ccccc1
  0.01, -1.5
- O=C(COC(=O)CCc1ccccc1)NC1CCS(=O)(=O)C1 (stereo not given)
  2.4, -0.07

(continued)
Each structure is followed by: KCNQ2 enhance, KCNQ2 enhance baseline
- CCCCCOc1ccc(CSCCNC(=S)Nc2ccccc2)cc1
  0.05, -1.3
- COc1ccc(C(=O)OCC(=O)N2CCCC2=O)c(OC)c1
  1.5, -1.7
- CC1CCCCN1S(=O)(=O)c1ccc(S(=O)(=O)N2CCN(c3ccc(F)cc3)CC2)cc1 (stereo not given)
  1.1, -0.47
- COC(=O)c1sccc1NC(=O)Nc1cccc(F)c1
  1.7, 0.05
- CNc1nc2cccnc2s1
  0.01, 1.3
- C=CCn1c(SCC(=O)N2CCc3ccccc3C2)nc2sc(CC)cc2c1=O
  0.99, -0.75
- CC(Sc1nnnn1C)C(=O)Nc1ccc(Oc2ccccc2)cc1 (stereo not given)
  1.4, -1.2
- O=c1c2sccc2[nH]c(=S)n1-c1ccccc1
  0.04, 0.56
- COCCCN(C(=O)CC1OC(=O)c2ccccc21)c1c(N)n(Cc2ccccc2)c(=O)[nH]c1=O (stereo not given)
  1.1, 0.5
- N#Cc1ccc(OCc2nnc3n2CCCCC3)cc1
  0.04, 0.09
- S=C(NCC1(c2ccccc2)CCCC1)Nc1ccccc1
  0.26, 1
- CC(C)NC(=S)N1CCCN(c2ncccc2[N+](=O)[O-])CC1
  0.04, 0
- c1coc(CNc2nc3ccccc3s2)c1
  0.23, -1.6
- COC(=O)c1cc(S(=O)(=O)NCC2CCN(CCc3ccc(OC)cc3)CC2)c[nH]1
  0.02, 0.02
- O=C(O)c1ccc(CNC(=O)c2ccc(Br)o2)cc1
  0.75, -1.2

(list continues)
Each structure is followed by: KCNQ2 enhance, KCNQ2 enhance baseline
- CCN(CC)S(=O)(=O)c1ccc(N2CCCC2)c(NC(=O)CC(C)(C)C)c1
  0.56, -0.54
- COCCOc1nc2ccccc2nc1C
  0.64, -0.73
- CCN(c1ccccc1)S(=O)(=O)c1ccc(C(=O)Nc2ccncc2)cc1
  8.2*, -1.9*
- O=C(CSc1cccc(C(F)(F)F)c1)NC(=O)NCc1ccco1
  0.92, -0.05
- Cc1ccc(/C=N/n2nnnc2N)cc1
  1.3, 0.37
- O=S(=O)(NCC1CCCO1)c1ccc(Cl)cc1 (stereo not given)
  0.76, -0.71
- CC(Sc1nnnn1C)C(=O)Nc1ccc2c(c1)OCCO2 (stereo not given)
  2.6, 0.44
- CCNC(=O)c1nc[nH]c1C(=O)NCC
  0.81, 3
- O=C(NCc1ccccc1)c1ccc2c(c1)C(=O)N(Cc1cccnc1)C2=O
  0.88, -1.4
- O=c1[nH]c(C2CCN(S(=O)(=O)Cc3ccccc3)CC2)nc2c1nnn2Cc1cccc(Cl)c1
  0.36, -0.01
- N#CCC(=O)Nc1ccc(C(=O)OCC(=O)N(C2CCCCC2)C2CCCCC2)cc1
  0.73, -1.7
- O=C1NC(=O)/C(=C/c2ccc(-c3cc(C(=O)O)ccc3Cl)o2)S1
  3.4, -2.2
- CCOC(=O)c1cnc(N2CCN(C(=O)OCC)CC2)[nH]c1=O
  0.04, 2.2
- CCOC(=O)C(C(=O)NCCCN1CCOCC1)C1CCCCC1 (stereo not given)
  0.2, -1.1
- Oc1ccc(Cl)cc1C1=NNC(c2ccc(Cl)cc2)C1 (stereo not given)
  1.7, 1.5

Additional entries follow.
Each structure is followed by: KCNQ2 enhance, KCNQ2 enhance baseline
- Cc1cc(C)n(-c2ccc(C(=O)Oc3ccc4c(c3)OCO4)cc2)n1
  1.4, 0.02
- COc1cc(/C=N/NC(=O)CSc2ccccn2)ccc1OC(C)C
  1.8, 0.85
- COc1cc2c(=O)n(CCCN3CCOCC3)c(=S)[nH]c2c(OC)c1OC
  1.2, -0.65
- CCC(Oc1ccccc1F)C(=O)Nc1ccc2c(c1)n(C)c(=O)n2C (stereo not given)
  0.23, -0.29
- CN(/C(=N/S(=O)(=O)c1cccs1)c1ccccc1)c1ccccc1
  0.52, -0.43
- O=C1OCC(Cn2c3ccccc3c3ccccc32)O1 (stereo not given)
  0.96, 0.11
- Cc1ccc(NC(=O)N2CCCCCC2)c(C)c1
  2.1, 0.44
- COC(=O)CCCNC(=O)c1ccc(OC2CCN(CCc3ccccc3)CC2)cc1
  1.1, 0.04
- O=C(N/N=C/c1ccc(OC(=O)c2cccs2)cc1)c1ccccn1
  0.3, -0.6
- COc1ccc(-c2csc(/C(C#N)=C\c3ccc(O)c([N+](=O)[O-])c3)n2)cc1OC
  0.01, 0.43
- COc1ccc(C(=O)O)cc1NC(=S)NC(=O)c1ccc(-c2ccc(Cl)cc2)o1
  1.5, -0.41
- Cc1ccc2[nH]c(C(=O)N3CCN(c4cccc(Cl)c4)CC3)cc2c1
  0.05, 1.1
- COc1ccc(CC(=O)NCCCSc2ccccc2)cc1OC
  0.19, -1.5
- Cc1cc2n(n1)C(c1cccs1)Nc1ccccc1-2 (stereo not given)
  0.76, -3.1
- CC(=O)N1CCc2cc(S(=O)(=O)N3CCOCC3)ccc21
  1.6, -0.63

Quoted at random: 2 compounds from above.
Each structure is followed by: KCNQ2 enhance, KCNQ2 enhance baseline
- CC1CCCCN1S(=O)(=O)c1ccc(S(=O)(=O)N2CCN(c3ccc(F)cc3)CC2)cc1 (stereo not given)
  1.1, -0.47
- O=C(COC(=O)CCc1ccccc1)NC1CCS(=O)(=O)C1 (stereo not given)
  2.4, -0.07

Other structures
Each structure is followed by: KCNQ2 enhance, KCNQ2 enhance baseline
- CCOc1ccc(C(O)C(CN2CCOCC2)c2ccccc2)cc1 (stereo not given)
  0.14, -2.2
- Cc1nnc(SCc2cccc([N+](=O)[O-])c2)s1
  0.42, 0.43
- CCOc1ccc(C(=O)C[n+]2ccc(C(=O)NCCO)cc2)cc1
  0.02, 0.06
- O=C1c2ccccc2-c2nc3ccccc3n21
  0.31, x
- C/C(CC(=O)NCc1ccc(F)cc1)=N\NC(N)=S
  0.41, -0.1
- COc1ccc(CC(=O)Nc2ccc(N3CCN(c4ccc(OC)cc4)CC3)c(C#N)c2)cc1
  1.1, -0.72
- Cc1ccc(-n2c(Cc3cccn3C)nnc2SCC(N)=O)cc1
  0.12, -2.2
- CC(NC(=O)C(C)(C)C)C(c1cccs1)N1CCOCC1 (stereo not given)
  1.3, -0.05
- COc1ccc2c(c1)nc(CN1CCN(CCO)CC1)n2C
  0.68, -0.46

Compound activity as filed in PubChem BioAssay.

These rows are one share of the data. The share of hits here may be higher or lower than overall.
